TsaE inh: inhibitors of E. coli YjeE (TsaE). P0AF67. purified YjeE, fluorescence polarisation of a bound ADP probe. Potency, µM. actives 0.05% (n = 71,000). AID 605; active = well fitted falling curve; inconclusive = weaker or top-dose-only fall, or a rising curve; inactive = flat or poorly fitted curve;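 also: top concentration of the series not given in the record; excess ADP was the control for the full effect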
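Fluorescence polarization of a BODIPY Texas Red–ADP probe (2 uM) bound to purified YjeE (10 uM) was read after 15 min room-temperature incubation with compounds. Loss of polarization marks inhibitors; ADP serves as titrated control.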
Bst PK mod: modulators of Bacillus stearothermophilus pyruvate kinase; partly purified Bacillus stearothermophilus pyruvate kinase, luminescence ATP production; ribose 5-phosphate activator present at AC10; Potency, µM; actives 1.2% (n = 51,000); AID 361; in the data active means potency below about 11 µM; inconclusive means mostly about 12 µM to 25 µM; inactive means weaker than that;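 the screen sought inhibitors and activators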;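 also: potency is read from the fitted curve at half-maximal effect; scaled between full activation by ribose 5 phosphate and full inhibition by luteolin; about four in five hits inhibit and the cells do not say which; series up to 57 µM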
Numbers without * were called inactive; i = inactive; ? = inconclusive; . = no result given. Some of the compounds tested. The share of hits here may be higher or lower than overall.

The first three records as a preview:
Values in the order – TsaE inh, Bst PK mod
1	COCCN1Cc2cccc(C(=O)Nc3cccnc3)c2C1=O
→ i, .
2	CCC1Oc2ccc(C)cc2N(Cc2cccc(C)c2)C1=O (centres undefined)
→ i, >57
3	Cc1cc(-c2ccccc2C(=O)O)on1
→ i, >57

The whole of this part (from the top)
Values in the order – TsaE inh, Bst PK mod
1	COCCN1Cc2cccc(C(=O)Nc3cccnc3)c2C1=O
→ i, .
2	CCC1Oc2ccc(C)cc2N(Cc2cccc(C)c2)C1=O (centres undefined)
→ i, >57
3	Cc1cc(-c2ccccc2C(=O)O)on1
→ i, >57
4	Cc1nn(-c2ccccc2)c2c1C(c1c(C)[nH]c(C#N)c1C)C(C#N)=C(N)O2 (centres undefined)
→ i, >57
5	CC(C)C(=O)Nc1ccc(NC(=O)c2cc3ccccc3o2)cc1
→ i, >57
6	CC(=O)Nc1ccc(S(=O)(=O)N2CCSC2c2ccccc2)cc1 (centres undefined)
→ i, >57
7	CCOC(=O)c1ccc(Nc2cc(C)nc3nc(C)nn23)cc1
→ i, .
8	O=C(CC1COc2ccccc2O1)NC1CCCCC1 (centres undefined)
→ i, >57
9	Cc1ccc(C(C)C)c(OCCNc2nc3c(c(=O)n(C)c(=O)n3C)n2C)c1
→ ., >11
10	CN(C(=O)COc1ccccc1)c1nnc(-c2ccncc2)s1
→ i, >57
11	CCCn1c(C)nc2c(Nc3ccccc3)nc(C)nc21
→ i, .
12	Cc1ccc(-n2ncc3c(=O)[nH]c(SCC(=O)N4CCN(c5ccccc5)CC4)nc32)cc1
→ i, >57
13	C=CCn1c(CSc2nc3ccccc3s2)nnc1SCC(=O)NCc1ccco1
→ i, .
14	CC1(C)Cc2c(c(-c3ccccc3)nc(N3CCCC3)c2C(N)=O)CO1
→ ., >26
15	Cc1ccc(NC(=O)Nc2ccc3c(c2)N(C)C(=O)CS3)nc1
→ i, .
16	N#CCC(=O)N1CCCCCC1
→ i, >57
17	COc1ccc(CCC(=O)Nc2ccc3c(c2)OCCO3)cc1
→ i, .
18	CCn1c(Cn2nnc(-c3ccccc3)n2)nnc1SCC(=O)N1CCOCC1
→ i, >57
19	COc1cccc(NC(=O)C2CCN(S(C)(=O)=O)CC2)c1
→ i, >57
20	Cc1nc2ccccc2c(=O)n1N
→ i, >57
21	C=CCn1c(SCC(=O)O)nnc1-c1cccc(Cl)c1
→ i, >57
22	Cc1cc(NC(=O)Cn2cnc3c(cnn3C(C)(C)C)c2=O)no1
→ i, >57
23	COC(=O)c1cc(NC2c3ccccc3C(=O)N2c2cccnc2)cc(C(=O)OC)c1 (centres undefined)
→ i, .
24	O=c1oc2c(CN3CCOCC3)c(O)c(Cl)cc2c2c1CCC2
→ i, >57
25	O=C(O)c1ccc2c3c(ncnc13)-c1ccccc1C2=O
→ i, i
26	Cc1cc(=O)oc(C)c1C(=O)N[C@@H]1CCCCNC1=O
→ ., >26
27	CCOC(=O)C1CCN(C(=O)c2cccnc2)CC1
→ i, >57
28	Cc1cccc(NC(=O)c2ccccc2Br)n1
→ i, .
29	OCCN(Cc1ccccc1)CC1CC2C=CC1C2 (centres undefined)
→ i, >57
30	O=S(=O)(Cc1ccccc1Cl)Nc1ccccn1
→ i, >57

Next section:
Values in the order – TsaE inh, Bst PK mod
31	COc1ccc(NC(=O)C2CCCN(S(=O)(=O)c3c(C)n[nH]c3C)C2)cc1 (centres undefined)
→ i, >57
32	Cc1nnc(SCC(=O)N2CCOCC2)n1C
→ i, .
33	CC(Sc1nc(N)cc(=O)[nH]1)C(=O)NC1CCCCC1 (centres undefined)
→ i, >57
34	Cc1cc(Br)ccc1NC(=O)CCN1C(=O)c2ccncc2C1=O
→ i, >57
35	CC(=O)NCCNc1ncnc2ccc(-c3ccccc3C#N)cc12
→ i, .
36	O=C(CCc1ccccc1)Nc1ccc(NC(=O)c2ccco2)nc1
→ i, >11
37	O=C(NCCC1=CCCCC1)NC1CCCCC1
→ i, .
38	Cc1ccc2nc3c(cc2c1)CN(Cc1ccco1)C(=NCC1CCCO1)S3 (centres undefined)
→ i, >57
39	COc1ccc(CNCCNC(=O)c2nonc2N)cc1OC
→ i, >57
40	[O-][N+]1=C(c2cccs2)CN(O)C1
→ i, >57
41	[O-][n+]1onc2c1CCc1c-2nc(-c2ccccc2)n1OCc1ccccc1
→ i, >57
42	C=CCn1c(CC(=O)Nc2cccc(OC)c2)nnc1SCC(=O)NC1CCCCC1
→ i, >57
43	O=CN1CCN(C(=O)CN2C(=O)c3ccccc3C2=O)CC1
→ ., >26
44	O=C(COc1ccc(-c2ccccc2)cc1)N1CCN(C(=O)c2cccnc2)CC1
→ i, .
45	COc1ccc2cc(CN(CCO)C(=O)c3ccccc3F)c(=O)[nH]c2c1
→ i, >57
46	CCOC(=O)Cn1nnc(-c2ccc(S(C)(=O)=O)cc2)n1
→ i, >57
47	O=c1oc(-c2ccco2)nc2ccccc12
→ i, .
48	Cc1cc(-c2nnc(SCC(=O)N3C(C)CCCC3C)o2)no1 (centres undefined)
→ i, >57
49	Cc1cc(N2C(=O)CC(N3CCN(c4ccc(C(=O)c5cccs5)cc4)CC3)C2=O)no1 (centres undefined)
→ i, >57
50	Cc1nn(-c2ccccc2)c2[nH]c(=O)c(CNCC3CCCO3)cc12 (centres undefined)
→ i, >57
51	O=C(Nc1nncs1)C1(c2ccccc2)CCCC1
→ i, >57
52	CCN1C(=O)/C(=C\N2CCN(c3cccc(Cl)c3)CC2)SC1=S
→ i, >57
53	O=C(Nc1ccccc1Oc1ccccc1)c1ccc(Br)o1
→ i, .
54	Cc1noc(C)c1-c1nc(N2CCN(C)CC2)c2ccccc2n1
→ i, .
55	Cc1cc(C(=O)N[C@@H](c2ccccc2)[C@]2(C)C[C@H]2[C@@H](C)C(=O)Nc2ccc3ccccc3c2)no1
→ i, .
56	COc1ccc(OC)c(NC(=O)Cn2cc(C(=O)c3ccco3)c3ccccc32)c1
→ i, >57
57	O=C(O)CCc1ccc(-c2ccc(Cl)cc2)n1Cc1ccco1
→ i, >57
58	CC(=O)NC(CCS(C)(=O)=O)C(=O)Nc1ccc2c(c1)OCCO2 (centres undefined)
→ i, >57
59	COC1=CC(=O)C[C@@H](C)[C@]12Oc1c(Cl)c(OC)cc(OC)c1C2=O
→ i, .
60	COc1nc2c(s1)C(=O)NCCC2
→ i, >57

Going on with the list.
Values in the order – TsaE inh, Bst PK mod
61	Cc1c(NC(=O)COc2ncnc3ccccc23)c(=O)n(-c2ccccc2)n1C
→ i, >57
62	Cn1c(=O)c2c(nc(CN3CCOCC3)n2CC(=O)c2ccccc2)n(C)c1=O
→ i, >57
63	CCOC(=O)CNC(=O)c1sc(NC(=O)c2ccccc2F)nc1C
→ i, .
64	c1ccc(CSc2nnc(SCc3ccccn3)s2)nc1
→ ., >26
65	CC1C(=O)C(C)C(c2cccs2)NC1c1cccs1 (centres undefined)
→ i, >57
66	CCOC(=O)CNC(=O)c1ccccc1Br
→ i, >57
67	CCCCCCn1c(N2CCC(C(N)=O)CC2)nc2c1c(=O)[nH]c(=O)n2C
→ i, >57
68	O=C(COC(=O)CCc1ccc(S(=O)(=O)N2CCCCC2)cc1)Nc1ccc2c(c1)OCO2
→ i, >57
69	CC(=O)c1cc2c(cc1NC(=O)Nc1cccc(Cl)c1)OCCO2
→ i, >57
70	N#Cc1cccc(-c2cc(NCc3cccs3)ncn2)c1
→ i, .
71	COc1ccc(OC)c(NC(=O)CSc2ncccc2C(=O)O)c1
→ i, >57
72	c1ccc2sc(N3CCN(Cc4nnnn4CC4CCCO4)CC3)nc2c1 (centres undefined)
→ i, >57
73	CC(C)(C)c1cc(CN2CCCC(O)C2)c(O)c(C(C)(C)C)c1 (centres undefined)
→ i, .
74	CC(=O)Nc1cc(CN2CCCCC2)c(O)c2ncccc12
→ i, .
75	O=C(c1ccccc1)N(Cc1cccs1)C1CCS(=O)(=O)C1 (centres undefined)
→ i, >57
76	CC(C)COC(=O)N(C)c1ccc(C(O)(C(F)(F)F)C(F)(F)F)cc1
→ i, >57
77	CC1=C(\C=C/C(C)=C/C=C\C(C)=C\C(=O)O)C(C)(C)CCC1
→ i, .
78	COCCNc1nc(SCC(=O)N2CCN(c3ccccc3)CC2)nc2ccccc12
→ i, >57
79	Cc1noc(C)c1COC(=O)c1cccc(S(=O)(=O)N2CCCCCC2)c1
→ i, >57
80	CCCSc1nc(C)c(CC(=O)O)c(=O)[nH]1
→ ., >26
81	Cc1onc(-c2ccccc2)c1C(=O)N1CCN(S(=O)(=O)c2ccc3c(c2)OCCO3)CC1
→ i, >57
82	CCNc1nc(Oc2ccc(=O)[nH]n2)nc(SC)n1
→ i, >57
83	Clc1ccc(-n2nnnc2-c2ccccc2)cc1
→ i, >57
84	Cn1cc(SCC(=O)NCC2CCCO2)c2ccccc21 (centres undefined)
→ i, .
85	O=C(O)c1cc(-c2ccco2)nc2ccc(Br)cc12
→ i, .
86	COc1ccc(OC)c(C(=O)c2oc3ccccc3c2NC(C)=O)c1
→ i, >57
87	CCc1cc(=O)oc2cc(C)c(CN3CCCC3)c(O)c12
→ ., >26
88	C=CCn1c(CCNC(=O)C(C)(C)C)nc2ccccc21
→ i, >57
89	CN(C)CCN1CC(C(=O)O)CC1=O (centres undefined)
→ i, >57
90	O=C(c1ccncc1)N1CCC2(CCCN(Cc3ccccc3)C2)CC1
→ i, .

The last 3 entries of the section before come first, to join the parts.
Values in the order – TsaE inh, Bst PK mod
88	C=CCn1c(CCNC(=O)C(C)(C)C)nc2ccccc21
→ i, >57
89	CN(C)CCN1CC(C(=O)O)CC1=O (centres undefined)
→ i, >57
90	O=C(c1ccncc1)N1CCC2(CCCN(Cc3ccccc3)C2)CC1
→ i, .
91	CCn1cc(C(=O)O)c(=O)c2cc(F)c(N3CCNCC3)cc21
→ i, >26
92	CC(=O)c1ccc(N2CCCCCC2)c(F)c1
→ i, .
93	CN(C)S(=O)(=O)c1cc(C(=O)NCC2CCCO2)c(Cl)cc1Cl (centres undefined)
→ i, >57
94	CN(CC(=O)N1CCCC1)S(=O)(=O)c1cc(Cl)ccc1Cl
→ i, >57
95	CCc1ccc(C2CC(c3ccccc3)n3ncnc3N2)cc1 (centres undefined)
→ i, .
96	CN(N=O)C(=O)N[C@H]1C(O)OC(CO)[C@@H](O)[C@H]1O (some centres undefined)
→ i, .
97	CC1(C)OC(=O)C(=CNc2cccc(O)c2)C(=O)O1
→ i, >11
98	COc1ccc(OC)c(CN(CCCN2CCOCC2)S(=O)(=O)c2ccc(NC(C)=O)cc2)c1
→ i, >57
99	O=C(CCS(=O)(=O)c1ccc(Br)cc1)N1CCN(Cc2ccccc2)CC1
→ i, >57
100	OC[C@@H]1O[C@@H](n2cnc3c(Nc4ccccc4)ncnc32)[C@@H](O)[C@H]1O
→ i, .
101	COc1ccccc1C1CC(c2ccc(Cl)cc2)Nc2ncnn21 (centres undefined)
→ i, .
102	CCCS(=O)(=O)N1CCCC(C(=O)NCCc2ccc(Cl)cc2)C1 (centres undefined)
→ i, >57
103	O=C1c2ccccc2C(=O)N1CCCc1nc(-c2ccccn2)no1
→ i, >57
104	OC1(c2cccnc2)CCN(Cc2nnnn2C2CCCCC2)CC1
→ i, >57
105	O=C(NCc1ccccn1)c1ccc(COc2ccc(Cl)cc2)o1
→ i, >57
106	CC(NC(=O)c1ccccc1NC(=O)c1ccco1)c1ccccc1 (centres undefined)
→ i, >57
107	CCn1c(SCC(=O)Nc2nccs2)nnc1-c1ccc(C)cc1
→ i, >57
108	CC(C)OC(=O)CSc1nnc(-c2ccccn2)n1C
→ i, >57
109	COCC(=O)N1CCC[C@@]2(CCN(Cc3ccccc3OC)C2)C1
→ i, .
110	CN(C)c1ncc2nc(CCc3ccccc3)c(=O)n(CCC#N)c2n1
→ i, .
111	Cc1cc2c(ccc3[nH]onc32)n1
→ i, >57
112	O=C(CCCc1ccccc1)NCCCN1CCOCC1
→ i, .
113	Cc1cccc(NC(=O)CSc2nnc(-c3ccc(S(=O)(=O)N4CCOCC4)cc3)n2C)c1
→ i, >57
114	NC(=O)c1nsc(C(=O)N(CC(=O)NCc2ccc3c(c2)OCO3)C2CCCC2)c1N
→ i, >57
115	COc1ccc2cc(CN(CC3COCCO3)S(=O)(=O)c3ccc(Cl)cc3)c(=O)[nH]c2c1 (centres undefined)
→ i, >57
116	COc1cc(NC(=O)COc2ccc(F)cc2)nc(OC)n1
→ i, .
117	Nc1n[nH]c(-c2ccc(Br)cc2)c1Cl
→ i, ?
118	COCC(C)n1c(SCC(=O)NC(=O)Nc2ccc3c(c2)OCCO3)nc2ccccc2c1=O (centres undefined)
→ i, >57
119	CC(CN1c2ccccc2Sc2ccccc21)N(C)C (centres undefined)
→ ., >26
120	Cc1occc1C(=O)Nc1ccc(S(=O)(=O)N2CCCC2)cc1
→ i, >57

Carrying on.
Values in the order – TsaE inh, Bst PK mod
121	CCOc1nc(Oc2cccc(C(=O)O)c2)nc(Oc2cccc(C(=O)O)c2)n1
→ ., >26
122	COc1ccc(C(=O)N2CCC(C(=O)NCc3ccccn3)CC2)cc1
→ i, >57
123	O=C1N/C(=C\c2ccccc2)c2ccccc21
→ i, 5.6*
124	CCOC(=O)C1(CC)CC(CSc2nc3ccccc3[nH]2)OC1=O (centres undefined)
→ i, >57
125	Cc1cc(Nc2cc(F)ccc2C)n2ncnc2n1
→ i, .
126	CCn1c(Cc2c(C)[nH]c3ccccc23)n[nH]c1=S
→ i, >57
127	O=C(O)C1CC2(C1)CC(C(=O)O)C2 (centres undefined)
→ i, .
128	CC(=O)c1cc(-c2ccc(F)cc2)n(CCC(=O)Nc2cc(C)[nH]n2)c1C
→ i, >57
129	CCC(=O)N(Cc1cc2cc(OC)ccc2[nH]c1=O)c1cc(C)ccc1C
→ i, >57
130	O=C(c1nc2ccccc2s1)N1CCN(c2ccccn2)CC1
→ i, >57
131	O=C(Oc1ccc(OC(=O)N2CCCCC2)cc1)c1ccccc1
→ i, >57

Screening data (PubChem)
